UUG fidelity = modulators of start codon recognition fidelity in yeast; actives 0.13% (n = 350,000); activity score, % at 18.7 µM; S. cerevisiae UUG-firefly luciferase reporter, luminescence/redox ratio;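 active = replicate mean at a twofold rise or more, about +100% in these data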;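 also: firefly luciferase made from a UUG start codon reports start codon fidelity; reporter light over untreated wells divided by growth signal over untreated wells; some hits fall short of that in this replicate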
HIV Env fusion = inhibitors of HIV Env-mediated cell fusion | inhibition, % at 12.3 µM | actives 1.1% (n = 360,000) | HeLa-JRFL Env/CEM21 cell fusion, luciferase;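 active = mean replicate inhibition score of at least 50 and every replicate individually at or above 50; inconclusive = only one of the two criteria met; inactive = mean below 50 and not all replicates reaching 50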;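 also: 0% = plate neutral controls and 100% = maraviroc near 300 nM; one replicate is shown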
eIF4H FP inh = inhibitors of RNA binding by human eIF4H. Q15056. eIF4H fluorescence polarization binding assay. inhibition, % at 35 µM. actives 0.94% (n = 290,000);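 active = 50% or more with normal probe brightness, or confirmed in later tests; inconclusive = above 50% with abnormal brightness, or retests that disagree; inactive = below 50% or failed in later tests; about a fifth of its hits are not listed in these tables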;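 also: calls also rest on retests at 20 µM and on dose response follow-up; 0% = protein and probe with vehicle and 100% = probe without protein; strong numbers were not always called active; many hits fall short of the cut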
MT1-MMP act inh = MT1-MMP (human) activation inhibition | P50281 | HT1080 RFP-PRO-GFP cells, GFP/RFP ratio fluorescence, overnight; percent of plate control window, DMSO zero | GFP/RFP ratio change, % at 20 µM | actives 0.061% (n = 360,000) | AID 651647;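 active = GFP/RFP ratio change of at least 30% with cell ATP level not reduced by more than half and red fluorescence within 50% of control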; also: strong numbers were not always called active
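Assay system: HT1080 RFP-PRO-GFP cells. Benchmarks: DMSO vehicle wells and RFP-L50D-GFP reporter cell wells. Times: overnight cell settling, then overnight compound exposure, 37 °C, 5% CO2. Compound: 20 µM single dose, 1% DMSO. Read-out basis: GFP/RFP fluorescence ratio.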
PABP FP inh = blocks human PABP binding to poly(A) RNA; fluorescence polarization; inhibition, % at 35 µM; actives 1% (n = 290,000); AID 2014;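 active = 50% or more with normal probe brightness, or confirmed in later tests; inconclusive = above 50% with abnormal brightness, or retests that disagree; inactive = below 50% or failed in later tests; about a fifth of its hits are not listed in these tables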;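 also: calls also rest on retests at 20 µM and on dose response follow-up; controls were probe without protein and protein plus probe with vehicle; some compounds called inactive have numbers as strong as hits; many hits fall short of the cut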
Target sequence (P11940 whole entry, looked up): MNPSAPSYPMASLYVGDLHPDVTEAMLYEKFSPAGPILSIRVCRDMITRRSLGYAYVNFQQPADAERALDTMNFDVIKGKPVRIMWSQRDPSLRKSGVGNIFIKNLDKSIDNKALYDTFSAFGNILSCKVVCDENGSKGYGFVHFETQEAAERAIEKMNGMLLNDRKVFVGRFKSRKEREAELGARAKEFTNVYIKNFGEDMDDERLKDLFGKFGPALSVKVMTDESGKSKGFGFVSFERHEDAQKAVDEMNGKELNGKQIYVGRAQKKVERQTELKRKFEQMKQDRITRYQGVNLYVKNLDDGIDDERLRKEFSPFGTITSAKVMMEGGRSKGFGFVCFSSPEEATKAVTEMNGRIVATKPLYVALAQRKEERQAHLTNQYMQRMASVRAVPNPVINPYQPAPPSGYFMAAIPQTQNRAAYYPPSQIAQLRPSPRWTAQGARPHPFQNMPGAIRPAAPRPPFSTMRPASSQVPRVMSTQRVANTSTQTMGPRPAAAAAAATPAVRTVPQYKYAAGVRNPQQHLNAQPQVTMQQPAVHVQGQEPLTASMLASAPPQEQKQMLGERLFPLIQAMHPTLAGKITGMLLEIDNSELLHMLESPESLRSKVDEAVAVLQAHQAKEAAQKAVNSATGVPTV
CSC inhib = cancer stem cell inhibition. cancer stem cell-like cells viability, luminescence. inhibition, % at 7.5 µM. actives 1.1% (n = 300,000);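 active = mean at 75% or more and at least half the replicates too; inconclusive = mean and replicates disagree; tested in HMLE shEcad cells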;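 also: 0% = median of negative and 100% = median of positive control wells; the first replicate is given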
Rce1 inhib = blocks yeast Ras-converting enzyme | Q03530 | calls only | actives 0.27% (n = 290,000) | yeast membranes, quenched prenylated peptide cleavage fluorescence | AID 2563;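 active = fall in fluorescence gain of 50% or more versus controls, with final raw signal at or below 3038400; inconclusive = same 50% fall but final raw signal above 3038400; inactive = fall in fluorescence gain under 50%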;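 also: plate controls were neutral control wells for no effect and wells lacking membranes for full effect; tested at 10 µM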
MT1-MMP act inh RFP = also measured in MT1-MMP act inh; calls as there; RFP signal change, %; measured here: RFP expression control read;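 0 = vehicle wells; hits needed this value within 50% of zero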
* marks the source's active call; other numbers are inactive results; i = inactive; ? = inconclusive; . = not tested or not shown; + = active, no number.

[1] CN(C(=O)C1Cc2c(-c3ccccc3Oc3ccccc3)ccnc2O1)c1ccccc1 (stereo unspecified)
[2] CC(=O)C1=C(O)C(=O)N(c2ccc(O)cc2)C1c1ccc(Cl)cc1 (stereo unspecified)
[3] Cc1ccc(-c2cc(C(=O)NCc3cn(C)nc3C)c3cc(Br)ccc3n2)cc1
[4] Cc1cc(N2CCC(C(=O)NC3CC3)CC2)nc(-c2ccccc2)n1
[5] CCNc1nc(OC)nc(SCC(=O)Nc2ccccc2)n1
[6] CCN(CC)CCNC(=S)Nc1ccc2nc(N3CCCC3)cc(C)c2c1

Assay by compound	1	2	3	4	5	6
CSC inhib	.	-13	-4	-1	17	26
MT1-MMP act inh RFP	-7	2	-2	2	1	3
PABP FP inh	.	6	5	2	-8	-10
eIF4H FP inh	.	3	-16	0	8	-11
UUG fidelity	1	-14	-3	-6	4	.
HIV Env fusion	9	4	-27	-27	-12	7
MT1-MMP act inh	-2	2	11	0	-2	6
Rce1 inhib	.	i	i	.	i	i

A few values from the entries so far.
Cc1ccc(-c2cc(C(=O)NCc3cn(C)nc3C)c3cc(Br)ccc3n2)cc1 in HIV Env fusion is listed with -27
CCN(CC)CCNC(=S)Nc1ccc2nc(N3CCCC3)cc(C)c2c1 in MT1-MMP act inh RFP is listed with 3

Next records.
[7] CC(=O)c1cccc(NC(=O)CSc2ccc(-c3cccnc3)nn2)c1
[8] Cn1c(=O)c2[nH]c(-c3ccccc3)c(O)c2n(C)c1=O
[9] CC(C)C(=O)Nc1cccc(-c2nc3ccccc3o2)c1
[10] CCN(CC(=O)Nc1ccc(Br)cc1F)CC(=O)NC1CCS(=O)(=O)C1 (stereo unspecified)
[11] CC(=O)Nc1ccc(NC(=O)Cc2sc(-c3cccnc3)nc2-c2ccc(C)cc2)cc1
[12] CCOC(=O)c1sc2ccc(S(=O)(=O)N3CCCCC3)cc2c1N

Assay by compound	7	8	9	10	11	12
CSC inhib	.	-13	21	-11	-5	3
MT1-MMP act inh RFP	3	-1	0	4	5	-7
PABP FP inh	.	2	-12	.	7	-9
eIF4H FP inh	.	?	-1	.	-3	-6
UUG fidelity	-6	.	-6	0	-12	0
HIV Env fusion	3	4	.	-15	7	32
MT1-MMP act inh	2	-49	2	-2	5	3
Rce1 inhib	.	i	i	.	i	i

[13] O=c1[nH]c(Cc2ccccn2)nc2scc(-c3ccc(Cl)cc3)c12
[14] Cc1cccc(N(C(=O)c2sc(C)nc2C)C(C(=O)NCc2ccco2)c2ccccc2)c1 (stereo unspecified)
[15] CCOc1ccc(S(=O)(=O)NCc2cccnc2)cc1C(C)C
[16] CCOC(=O)C1CCN(C(=O)CCc2ccccc2)CC1
[17] CCC(C(=O)NCCCN1CCCCCC1)n1nc(C)c2sc3ccccc3c2c1=O (stereo unspecified)
[18] O=C1CSC(c2cccnc2)N1Cc1cccnc1 (stereo unspecified)

Assay by compound	13	14	15	16	17	18
CSC inhib	7	-7	-1	-8	9	5
MT1-MMP act inh RFP	-9	-4	-7	-3	3	2
PABP FP inh	11	-9	-4	4	-9	1
eIF4H FP inh	2	-11	4	-2	3	7
UUG fidelity	-32	0	-10	-4	-15	-15
HIV Env fusion	-25	-80	1	.	7	-9
MT1-MMP act inh	-15	-7	5	-2	3	1
Rce1 inhib	i	i	i	i	i	i

[19] CCCCCC(=O)Nc1ccc(N2CCN(CC)CC2)c(Cl)c1
[20] Cc1cc(C(=O)CCC(=O)Nc2ncccc2C)c(C)s1
[21] C=CCC[C@H](Cc1ccc(F)cc1)C(=O)OC[C@@H](C)NC(=O)[C@H](CC=C)CC(=O)N(CCO)Cc1ccccc1
[22] CCCNC(=O)N1CCN(C(=O)NCCC)CC1
[23] CCc1[nH]nc(C(=O)N/N=C/c2ccncc2)c1C
[24] CCOc1ccc2nc(N3CCCC(C(=O)NCCCN4CCCCC4)C3)sc2c1 (stereo unspecified)

Assay by compound	19	20	21	22	23	24
CSC inhib	19	0	-10	0	-7	-13
MT1-MMP act inh RFP	1	6	-13	3	-3	4
PABP FP inh	-9	.	.	-4	-6	2
eIF4H FP inh	-9	.	.	-5	-18	-13
UUG fidelity	-3	-12	-13	-19	-9	6
HIV Env fusion	.	6	-49	-15	0	1
MT1-MMP act inh	3	-3	-7	-1	0	2
Rce1 inhib	i	i	.	i	.	i

[25] CCn1c(/C=N/NC(=O)c2ccc(OC)cc2)nc2ccccc21
[26] C[C@@H]1CN([C@@H](C)CO)S(=O)(=O)c2ccc(Br)cc2O[C@H]1CN(C)C(=O)C1CCOCC1
[27] O=C(c1cccc(-n2cnnn2)c1)N1CCOCC1
[28] O=C(NCc1ccc(F)cc1)Nc1nnc([C@@H]2C[C@H](O)[C@@H](CO)O2)s1
[29] O=C(Cn1sc2ccccc2c1=O)NC12CC3CC(CC(C3)C1)C2
[30] O=C(O)CCN1CCN(S(=O)(=O)c2ccc3ccccc3c2)CC1

Assay by compound	25	26	27	28	29	30
CSC inhib	33	.	-12	.	28	-5
MT1-MMP act inh RFP	-4	2	2	1	-6	0
PABP FP inh	4	.	-4	.	-2	-2
eIF4H FP inh	7	.	-4	.	2	-5
UUG fidelity	.	7	-14	-10	-17	-21
HIV Env fusion	0	37	-13	13	.	-16
MT1-MMP act inh	7	1	4	-2	-4	0
Rce1 inhib	i	.	i	.	i	i

[31] O=C1/C(=C/c2ccc(O)cc2)COc2ccccc21
[32] CCn1nnc(-c2ccccc2NC(=O)c2cnccn2)n1
[33] O=C(NCCc1ccccc1)C1CC(=O)N(C2CCCCC2)C1 (stereo unspecified)
[34] COc1ccccc1CNS(=O)(=O)CCNC(=O)c1ccccc1
[35] O=C(Cc1ccccc1)NCC(=O)Nc1ccc(OC(F)(F)F)cc1
[36] O=C(COC(=O)c1ccc(O)cc1)NCC1CCCO1 (stereo unspecified)

Assay by compound	31	32	33	34	35	36
CSC inhib	5	14	-9	-5	-10	.
MT1-MMP act inh RFP	-5	1	2	-2	4	9
PABP FP inh	2	.	8	.	1	-14
eIF4H FP inh	-7	.	-11	.	-14	-4
UUG fidelity	-16	.	-2	-9	-10	.
HIV Env fusion	3	.	8	-7	24	9
MT1-MMP act inh	-9	1	-2	4	3	3
Rce1 inhib	.	i	i	i	i	i

Along the list, as entered above.
Entries 31 to 36 in Rce1 inhib, in turn: ., i, i, i, i, i

The list goes on.
[37] CN(C)CCN(Cc1cc2cc3c(cc2nc1Cl)OCO3)C(=O)c1ccco1
[38] CN(C)CCN(C(=O)c1ccco1)c1nc2cc3c(cc2s1)OCCO3
[39] O=C1NC2(Nc3ccccc31)C(=O)Nc1ccccc12 (stereo unspecified)
[40] COCCC(=O)N1CCC(Oc2ccc(C(=O)N3CCC[C@H]3CO)cc2)CC1
[41] O=C(c1ccco1)N1CCN(Cc2csc(-c3ccccc3Cl)n2)CC1
[42] O=C(COc1ccccc1)N1CCNC1=O

Assay by compound	37	38	39	40	41	42
CSC inhib	.	13	4	.	8	-3
MT1-MMP act inh RFP	3	3	-3	0	-10	-3
PABP FP inh	12	-2	4	-10	-1	-7
eIF4H FP inh	-2	-3	1	-7	-12	-11
UUG fidelity	-2	-2	-17	-1	-11	-7
HIV Env fusion	3	-10	.	0	-33	-35
MT1-MMP act inh	-1	-3	-3	-3	2	5
Rce1 inhib	i	i	i	i	i	i

[43] Cc1nc(N2CCCCC2C)c2c(C)c(C(=O)Nc3ccccc3C(F)(F)F)sc2n1 (stereo unspecified)
[44] CCC(=O)Nc1nc2ccccc2n1CCN1CCOCC1
[45] FC(F)(F)c1ccc(CN2C[C@@H]3C(c4ccc(Cl)nc4)C4(c5cccnc5)CC3(C4)[C@H]2c2ccccc2)cc1 (stereo partly specified)
[46] CC(=O)c1ncnn1CC(=O)c1ccc(Cl)cc1Cl
[47] CN(C)c1ccc(C(CC(=O)O)C(=O)O)cc1 (stereo unspecified)
[48] Cc1cc(C)cc(Oc2ccc(C(F)(F)F)cc2C#N)c1

Assay by compound	43	44	45	46	47	48
CSC inhib	33	-19	29	12	8	-2
MT1-MMP act inh RFP	4	4	.	6	5	0
PABP FP inh	0	-8	0	6	0	3
eIF4H FP inh	-8	6	-12	-10	-8	-3
UUG fidelity	-26	-14	.	.	.	3
HIV Env fusion	12	.	2	-68	1	.
MT1-MMP act inh	2	9	.	5	-3	0
Rce1 inhib	+	i	i	i	i	i

A draw from above in order of SMILES length, descending.
[45] FC(F)(F)c1ccc(CN2C[C@@H]3C(c4ccc(Cl)nc4)C4(c5cccnc5)CC3(C4)[C@H]2c2ccccc2)cc1 (stereo partly specified)
[48] Cc1cc(C)cc(Oc2ccc(C(F)(F)F)cc2C#N)c1
[44] CCC(=O)Nc1nc2ccccc2n1CCN1CCOCC1

Assay by compound	45	48	44
CSC inhib	29	-2	-19
MT1-MMP act inh RFP	.	0	4
PABP FP inh	0	3	-8
eIF4H FP inh	-12	-3	6
UUG fidelity	.	3	-14
HIV Env fusion	2	.	.
MT1-MMP act inh	.	0	9
Rce1 inhib	i	i	i

Next section
[49] CCc1cccc(C)c1NC(=O)C(c1ccccc1)N1CCC1=O (stereo unspecified)
[50] COc1ccc(CNC(=O)C(C#N)c2nc3ccccc3nc2N2CCN(C)CC2)cc1 (stereo unspecified)
[51] Fc1ccc(Nc2ncnc3sccc23)cc1
[52] Cc1cc(NC(=O)CSCc2ccc([N+](=O)[O-])cc2)no1
[53] CCC(C)[C@H]1CNC(=S)N1CCC12CC3CC(CC(C3)C1)C2 (stereo partly specified)
[54] Cc1ccc(C)c(S(=O)(=O)N2CC(=O)N(CCc3ccccc3)C(=O)C2)c1

Assay by compound	49	50	51	52	53	54
CSC inhib	-13	2	0	-6	7	12
MT1-MMP act inh RFP	1	0	-5	-1	-1	10
PABP FP inh	3	-3	1	-5	7	2
eIF4H FP inh	-3	-4	3	3	-8	-4
UUG fidelity	-2	.	-21	.	-29	-8
HIV Env fusion	-42	.	11	-10	30	-12
MT1-MMP act inh	-2	-6	-7	1	0	3
Rce1 inhib	i	i	i	i	i	i

[55] CC(=O)NCCSC(=O)c1ccc(F)cc1
[56] COc1ccc(C2CC(c3cccs3)=NN2C(=O)CSC2=NCCS2)cc1 (stereo unspecified)
[57] CC(C)C(=O)Nc1ccc(S(=O)(=O)N2CCC(c3nc4ccccc4[nH]3)CC2)cc1
[58] CCCC(CCC)C(=O)Nc1ccncc1
[59] CCC(=O)N1CCc2cc(Br)cc(S(=O)(=O)CCC(=O)NCCOC)c21
[60] CC1=C(C(=O)OCc2ccccc2)C(c2cccs2)NC(=O)N1CCCC(=O)O (stereo unspecified)
[61] C=C(C)CC(c1ccccc1)N(C(C)=O)c1ccco1 (stereo unspecified)
[62] COc1cccc(C(=O)N(CN2CCCC2=O)c2ccccc2OC)c1

Assay by compound	55	56	57	58	59	60	61	62
CSC inhib	22	19	-7	-12	-10	-5	35	4
MT1-MMP act inh RFP	3	-9	-1	-4	6	1	2	3
PABP FP inh	-8	-10	.	-5	1	-2	-10	-1
eIF4H FP inh	-10	-5	.	2	8	-9	-5	1
UUG fidelity	-8	-11	-2	-14	-1	-21	.	-14
HIV Env fusion	4	-6	0	-41	-33	-6	2	-106
MT1-MMP act inh	-2	-5	3	-3	-2	-1	-2	-1
Rce1 inhib	i	i	i	i	.	i	i	i

A portion of the library (hit frequency here may not be typical).
